Cruzain noTriton: cruzain (T. cruzi) inhibition without detergent; purified cruzain, Z-FR-AMC fluorescence, no detergent; Potency, µM, without a hit: max response, negative = inhibition, usual class: inhibitors; hit rate 2.3% among 200,000;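 also: plate controls were enzyme without inhibitor for no effect and buffer without enzyme for full effect; nearly all actives have a fitted effect of over 40% in size; top concentration of the series not given in the record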
Target sequence (P25779 123-467 limits assumed): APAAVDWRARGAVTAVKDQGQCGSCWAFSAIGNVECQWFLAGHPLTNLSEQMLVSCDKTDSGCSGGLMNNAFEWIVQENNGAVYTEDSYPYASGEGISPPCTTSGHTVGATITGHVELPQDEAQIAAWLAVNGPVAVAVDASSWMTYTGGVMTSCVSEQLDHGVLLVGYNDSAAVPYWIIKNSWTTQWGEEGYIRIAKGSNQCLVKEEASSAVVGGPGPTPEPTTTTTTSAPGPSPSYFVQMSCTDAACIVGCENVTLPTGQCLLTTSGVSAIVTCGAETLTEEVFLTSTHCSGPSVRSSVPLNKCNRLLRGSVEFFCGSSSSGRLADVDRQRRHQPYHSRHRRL
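Purified cruzain at 1.5 nM, pre-incubated 15 min with compound at room temperature in 100 mM sodium acetate pH 5.5, 5 mM DTT, 0.00005% Triton X-100. Reaction started with 2 uM Z-FR-AMC; AMC fluorescence increase over 60 s gives rate.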
RE007 growth inh: less growth of the S. pombe RE007 Vpr strain; S. pombe RE007 Vpr strain, BacTiter-Glo ATP luminescence, 24 h; control for the full effect not named in the record; Potency, µM (top dose mostly 92.2 µM), for the others: at the highest dose activity change, negative = less growth; hit rate 0.21% among 360,000; active = well fitted falling curve with a large enough effect; inconclusive = small, poorly fitted or top-dose-only effect; inactive = no such curve, though single readings can be large or run the other way;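 also: % is scaled to controls: 0 for no effect and ±100 for the full control effect; nearly all actives have a fitted effect of over 50% in size; the assay follows cell death caused by Vpr and the record does not say whether a fall means rescue or toxicity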
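Fission yeast strain RE007, carrying one chromosomally integrated HIV-1 vpr copy, was seeded at OD 0.01 in PMG+AL medium with 23 nL pinned compound. After 24 h at 30 °C and 99% humidity, viability was read by BacTiter-Glo luminescence.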
Lassa entry inh: Lassa virus entry inhibition; Lassa virus pseudotype entry inhibition, cell reporter; control for the full effect not named in the record; Potency, µM (titrated, usually from 37.9 µM), for inactives: top-dose activity change, negative = inhibition, most hits filed as inhibitors; hit rate 1.2% among 300,000; active means well fitted inhibition curve with a large enough effect; inconclusive means small, poorly fitted or top-dose-only effect, or effect the other way; inactive means flat fitted curve, though single readings scatter; tested in HEK293 cells; also: % is scaled to controls: 0 for no effect and ±100 for the full control effect; nearly all actives have a fitted effect of over 50% in size; luciferase read-out
SARS PLP yeast: inhibitors of SARS-CoV papain-like protease in yeast; Potency, µM (top dose mostly 32.9 µM), for the others: at the top dose activity, positive = growth rescue; hit rate 0.19% among 330,000; S. cerevisiae expressing SARS-CoV PLpro, growth rescue; control for the full effect not named in the record; active means well fitted rising curve with a large enough effect; inconclusive means small, poorly fitted or top-dose-only effect; inactive means no such curve, though single readings can be large or run the other way; also: 0% is about no effect; nearly all actives have a fitted effect of over 55% in size; growth read by luminescence after 48 h
Cruzain inh Det: blocks cruzain activity in presence of Triton detergent | hit rate 0.43% among 200,000 | AID 1478 | P25779 | purified cruzain, Z-FR-AMC fluorescence, 0.01% Triton | Potency, µM, for inactives: max response, negative = inhibition, usual class: inhibitors;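 also: plate controls were neutral wells for no effect and buffer without enzyme for full effect; nearly all actives have a fitted effect of over 40% in size; top concentration of the series not given in the record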
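Z-FR-AMC hydrolysis (2 uM substrate) by cruzain (1.5 nM) monitored kinetically at ex 360/em 450 nm after 15 min room-temperature compound exposure; 0.01% Triton X-100, pH 5.5, 5 mM DTT.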
Marburg entry inh: inhibitors of Marburg virus binding or cell entry. Marburg virus pseudotyped entry inhibition, cell reporter; control for the full effect not named in the record; about a third of the inactives were read at about 46 µM. Potency, µM (series often up to 37.8 µM), without a hit: at the highest dose activity change, negative = inhibition, hits mostly inhibitors. hit rate 1.8% among 300,000; active = well fitted inhibition curve with a large enough effect; inconclusive = small, poorly fitted or top-dose-only effect, or effect the other way; inactive = flat fitted curve, though single readings scatter; tested in HEK293 cells; about a fifth of its hits are not listed in these tables; also: % is scaled to controls: 0 for no effect and ±100 for the full control effect; luciferase read-out
2A StopGo: FMDV 2A StopGo reporter, luciferase signal | human cells with a luciferase reporter of 2A StopGo recoding; control for the full effect not named in the record | Potency, µM (top dose mostly 57.9 µM), for inactives: at the top dose signal change, negative = less light | hit rate 1.2% among 410,000 | AID 1159524; active = well fitted falling curve with a large enough effect; inconclusive = small, poorly fitted or top-dose-only effect; inactive = no such curve, though single readings can be large or run the other way; tested in HEK293T cells; also: % is scaled to controls: 0 for no effect and ±100 for the full control effect; nearly all actives have a fitted effect of over 45% in size; luciferase light after 4 h
NS1 inh: inhibitors of influenza NS1 protein function. S. cerevisiae slowed by influenza A NS1, growth recovery by OD600. Potency, µM (doses to about 46.1 µM), for inactives: at the highest dose activity, positive = more growth. hit rate 0.4% among 270,000. AID 2326; active means well fitted rising curve with a large enough effect; inconclusive means small, poorly fitted or top-dose-only effect; inactive means no such curve, though single readings can be large or run the other way; also: nearly all actives have a fitted effect of over 50% in size
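OD600 was taken as the measure of yeast growth restored by compound in an NS1-expressing S. cerevisiae strain. Cells had been washed out of glucose medium and diluted 1:100 into galactose -URA medium, pH 6.0.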
* = called active by the depositor; u = inconclusive; x = no result given; & = joins results of further samples; [ ] = dose if it differs, or a comment. Unless noted, calls follow the shape of the dose curve; as a rule, active = well fitted curve in the direction sought with a large enough effect; inconclusive = small, poorly fitted or top-dose-only effect, or another doubt; inactive = no such curve, though single readings can be large; an effect the other way counts as inactive or inconclusive. Potency is read from the fitted curve at half-maximal effect.

SMILES	Cruzain noTriton	RE007 growth inh	Lassa entry inh	SARS PLP yeast	Cruzain inh Det	Marburg entry inh	2A StopGo	NS1 inh
CN(C)/C=N/c1cc(=O)[nH]c(=O)n1C	-4%&5%	-12%	-1%	25%	0.0%&-3.5%	u	2%	u
O=C(CCN1C(=O)COc2ccccc21)NCCN1CCN(c2ccccc2F)CC1	-7%	4%	5%	-6%	-0.8%	-12%	x	-8%
Cc1ccc(C(=O)NC2CC(C)(C)NC(C)(C)C2)cc1C	3%	-15%	4%	2%	9.8%	2%	9%	4%
Cc1ccc2c(c1)C(=O)CC1(CCCC1)O2	x	11%	x	2%	x	x	-9%	-6%
Cc1ccc(OCc2nnc(SCC(=O)Nc3nccs3)n2-c2ccccc2)cc1C	6%	-2%	-1%	-8%	3.2%	9%[46.1 µM]	0%	-4%
O=C(Cn1ncc2c([nH]c3ccccc32)c1=O)Nc1cccnc1	x	-7%	x	-3%	x	x	-28%	-2%
COc1ccc(/C=C/C(=O)NCC(=O)N=Nc2c(O)[nH]c3ccc([N+](=O)[O-])cc23)cc1	x	-1%	19%[46.1 µM]	-1%	x	u	6%	24%
CCOc1ccc(NC(=O)C(CC(=O)O)Cc2ccccc2)cc1 (stereo not given)	x	-21%	10%	14%	x	0%[46.1 µM]	7%	1%
CC(O)c1nc2ccccc2n1C(C)c1ccccc1 (stereo not given)	x	-1%	x	5%	x	x	-13%	10%
COc1ccc2c(c1)cc1c(=O)n(CC(=O)NC3CCCCC3)nc(C)n12	-1%	x	x	x	-0.3%	6%[46.1 µM]	-2%	x
Nc1nnc(-c2ccncc2)s1	-4%	0%	5%	0%	-0.7%	1%	8%	-4%
COC(=O)C(C)n1nc(C)n(-c2ccc(C)cc2)c1=O (stereo not given)	-3%	5%	-5%	u	4.9%	0%	7%	7%
CCCCC(=O)N(c1ccc(C(=O)O)cc1)c1nc(-c2ccc(Cl)cc2)c(CC)s1	x	-1%	-2%	-1%	x	6%	-18%	0%
COc1ccc(CCNC(=O)c2cn(C)c3ccc(S(=O)(=O)N4CCOCC4)cc3c2=O)cc1OC	u	6%	-17%[46.1 µM]	1%	-4.5%	16%&16%[46.1 µM]	10%&-3%	14%
COc1ccc(CN2C(=O)c3ccccc3C(/C=N/OCc3ccc(Cl)cc3)C2=O)cc1 (stereo not given)	u	-2%	-18%	-1%	-2.6%	u	0%	12%
O=C1Nc2ccccc2N(O)N1c1cc(-c2cccc(Cl)c2)no1	u	-2%	-8%	6%	-4.4%	15%	26%	3%
CCOC(=O)N1CCN(C(=O)CN(C)S(=O)(=O)c2ccc3c(c2)C(C)(C)C(=O)N3C)CC1	6%	12%	-6%	-2%	0.4%	5%&5%	1%	-6%
Cc1cccc(NC(=O)c2cc([N+](=O)[O-])ccc2Cl)c1O	x	-13%	1%	0%	x	-28%[46.1 µM]	-21%	-10%
COc1cccc2[nH]c(C(=O)NC(C)c3ccccc3)cc12 (stereo not given)	x	-21%	x	-3%	x	x	-27%	-16%
COc1ccc(NC(=O)Nc2ccccc2C(N)=O)cc1	x	u	x	-2%	x	x	55%[activator]	-6%
Cc1ccccc1C(=O)OC1CCN(C)CC1	x	-14%	0%	0%	x	u	-6%	-2%
CCN1CCc2c(C#N)c(N3CCCCC3)nc(N3CCOCC3)c2C1	-10%	5%	u	-9%	-0.4%	u	-3%	-3%
Cc1cccc(CN2CCSCC2)c1	x	-4%	-18%[46.1 µM]	0%	x	6%[46.1 µM]	-4%	-16%
C=CCc1cccc(OC)c1OCCOCCn1ccnc1	-12%	1%	-7%	0%	-1.4%	1%	-7%	7%
c1ccc(CN2CCN(Cc3nnc(-c4ccccc4)o3)CC2)cc1	x	u	-3%	1%	x	11%[46.1 µM]	11%	x
CCn1c(CCc2ccccc2)nc2ccccc21	x	-14%	u	-1%	x	u	13%	-29%
Cc1ccc(S(=O)(=O)Nc2ccccc2)cc1C(=O)N1CCCC1	x	5%	13%	-9%	x	6%	-3%	-1%
CCN(CC)c1ccc(/C=c2/sc3nnc(-c4ccccc4C)n3c2=O)cc1	u	1%	-3%	0%	-6.0%	14%	x	-5%
COc1ccc(C(=O)Nc2ccc3nc(SCC(=O)N4CCCc5ccccc54)sc3c2)cc1	1%	x	-25%[46.1 µM]	x	0.4%	u	-22%	x
NC1=NC(=O)/C(=C/C=C/c2cccs2)S1	x	-2%	7%	x	x	u	4%	x
CCc1c(C)sc(NC(=O)c2cccs2)c1C(N)=O	-17%	u	7%	-14%	-6.9%	1%	x	-84%
Cc1cccc(N2C(=O)SC(N(C)c3ccccc3)C2=O)c1 (stereo not given)	-13%	11%	7%	-1%	-5.2%	u	-1%	-7%
O=C(Nc1ccccc1)Nc1ccc2snnc2c1	u	-6%	10%	-76%	-13%	u	20%	-48%
CCC(Sc1nc2cc(OC)c(OC)cc2c(=O)n1Cc1ccco1)C(=O)NCCOC (stereo not given)	u	6%[3.69 µM]	2%	7%	-0.3%	-26%	-10%	-7%
CN(C)CCCn1c(N)c(S(=O)(=O)c2ccccc2)c2nc3ccccc3nc21	x	-5%	0%	1%	x	-20%[46.1 µM]	12%	1%
CCOC(=O)C1CCCN(Cc2ccc(OC)cc2OC)C1 (stereo not given)	5%	-2%[3.69 µM]	-9%	3%	7.8%	-22%	1%	-5%
COc1ccc(CNC(=O)C2CCC(=O)N(CCCN3CCCC3=O)C2)cc1 (stereo not given)	x	-18%	-4%	-3%	x	0%	-7%	11%
Cc1cc(N2CCC(C(=O)Nc3ccc(F)cc3C)CC2)n2nc(C)c(-c3ccc(Cl)cc3)c2n1	2%	x	9%[46.1 µM]	x	1.5%	11%[46.1 µM]	-1%	x
CCCCn1nc(C(=O)Nc2ccc(S(=O)(=O)Nc3ncccn3)cc2)c2ccccc2c1=O	x	-7%	4%	3%	x	6%[46.1 µM]	4%	x
O=C(NCc1ccccc1Cl)NC(=O)c1ccccc1	x	3%	-5%	5%	x	-1%	14%	x

As a working copy, 2 of the compounds above.
SMILES	Cruzain noTriton	RE007 growth inh	Lassa entry inh	SARS PLP yeast	Cruzain inh Det	Marburg entry inh	2A StopGo	NS1 inh
Cc1ccccc1C(=O)OC1CCN(C)CC1	x	-14%	0%	0%	x	u	-6%	-2%
CCN1CCc2c(C#N)c(N3CCCCC3)nc(N3CCOCC3)c2C1	-10%	5%	u	-9%	-0.4%	u	-3%	-3%

Following part:
SMILES	Cruzain noTriton	RE007 growth inh	Lassa entry inh	SARS PLP yeast	Cruzain inh Det	Marburg entry inh	2A StopGo	NS1 inh
O=C(O)CCCCCNC(=O)/C(=C\c1ccco1)NC(=O)c1ccco1	x	-4%	x	-5%	x	x	-11%	-2%
Cc1c(/C=C/C(=O)c2ccccc2O)cnn1C	-1%	u	u	-2%	-4.4%	u	40%[activator]	-9%
O=S(=O)(Nc1nc2ccccc2s1)c1cnc(Cl)c(Br)c1	x	-4%	u	-2%	x	-1%[46.1 µM]	12%	-5%
C[C@H]1CN=C(Nc2ccccc2)N1CCC1CCCCC1	x	7%	x	5%	x	x	-26%	-19%
O=C(Cn1nc(N2CCN(c3ccccc3)CC2)ccc1=O)NCc1cccc(Cl)c1	u	x	2%[46.1 µM]	x	-1.0%	x	-27%	x
O=C(NC1CCCC1)c1ccc(Br)c(S(=O)(=O)N2CCCCC2)c1	x	2%	3%[46.1 µM]	0%	x	u	-2%	-1%
CC(Oc1ccc2ccc(=O)oc2c1)C(=O)NC1CCN(Cc2ccccc2)CC1 (stereo not given)	x	3%	x	-1%	x	x	-11%	-7%
CCc1cccc(C)c1NC(=S)NCc1ccc2c(c1)cc(C)n2C	u	-4%	u	-10%	-4.0%	u	-13%	14µM*
CN1C(=O)N(C)C(=O)C2(Cc3cc([N+](=O)[O-])ccc3N3CCN(C(=O)c4ccccc4)CC32)C1=O (stereo not given)	x	3%	x	1%	x	10%[46.1 µM]	-10%	2%
CCOc1ccc(OCCC(=O)NNC(=O)c2cc(C)oc2C)cc1	x	-16%	-1%	-1%	x	22%	-19%	x
CN(CC(O)COc1ccc(OCC(O)CN(C)C2CCCCC2)cc1)C1CCCCC1 (stereo not given)	2%	2%	u	x	4.8%	10µM*	-1%	9%
CCCc1cc2c(-c3ccccc3)cc(=O)oc2cc1OCc1ccc(C(=O)O)o1	x	24%	3%	1%	x	20%[46.1 µM]	-21%	x
O=C(CC1CCCC1)N1CCN(S(=O)(=O)c2ccc(F)cc2)CC1	x	21%	-4%	-3%	x	-13%	-16%	x
COc1ccc(S(=O)(=O)N2CCCCCC2)cc1C(=O)N(C)Cc1ccccc1F	x	5%	u	3%	x	-8%	21%	x
O=C1c2ccccc2C(=O)N1CCCCN(C(=O)c1ccco1)c1ccc(Cl)cc1	5%	8%	-5%	-6%	-4.2%	-12%	u	-22%
COc1ccc(C)cc1NC(=O)c1cccc(C(=O)Nc2cc(C)ccc2OC)n1	x	-9%	1%	-3%	x	26%	-24%	7%
O=C(NC1CCCCC1)C(c1ccccc1)N1CCc2ccccc21 (stereo not given)	-14%	-3%	x	-17%	-2.7%	x	u	14%
O=C(O)c1nccnc1C(=O)Nc1ccccc1-c1ccccc1	x	4%	-17%[46.1 µM]	0%	x	-3%[46.1 µM]	6%	4%
COc1ccc(OC)c(NC(=O)CSCC(=O)O)c1	-6%	30%	18%	4%	6.3%	9%	0%	7%
COc1cc(/C=C(\C#N)c2ccccn2)ccc1OCC(=O)Nc1ccc(Br)cc1	27%	u	3%	-1%	-3.4%	3%	-11%	-2%
Cc1ccc(Cl)cc1NC(=O)CN1CCN(S(=O)(=O)N2CCC(C)CC2)CC1	x	0%	18%	-1%	x	2%	-4%	-33%
CC(=O)Nc1ccc(Nc2ncnc3c2c(-c2ccccc2)cn3-c2ccccc2)cc1	-11%	x	14%[46.1 µM]	x	0.0%	x	u	x
COc1ccccc1C(CC(=O)O)NS(=O)(=O)c1ccc2c(c1)N(C(C)=O)CC(C)O2 (stereo not given)	x	-2%	x	0%	x	x	9%	12%
O=C1CC(N2CCN(c3ccccc3)CC2)C(=O)N1c1cccc(Br)c1 (stereo not given)	x	u	x	-23%	x	x	-11%	12%

Assay outcomes from PubChem.
